GLA inh pH 4.5: qHTS Assay for Inhibitors of Human alpha-Galactosidase at pH 4.5; purified enzyme, 4-MU-alpha-Gal fluorescence, pH 4.5; activity change, negative = inhibition, % at 105 µM; 230,000 tested, under 10 active; AID 1467, 2008; inconclusive = small, poorly fitted or top-dose-only inhibition, or a rising curve; inactive = flat fitted curve, though single readings scatter; no compound was filed as active;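 also: 0% = full activity with enzyme and -100% = basal without enzyme; dose as in the result columns while the protocol names 77 µM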
Rango release inh: qHTS Assay for Inhibitors of RanGTP induced Rango (Ran-regulated importin-beta cargo) - Importin beta complex dissociation; Snurportin-1 (Homo sapiens) + GTP-binding nuclear protein Ran (Homo sapiens) + Importin …; Biochemical FRET Rango-importin beta, RanGTP-induced dissociation; hit rate 0.071% among 340,000; Potency, µM (series often up to 46.1 µM), without a hit: top-dose activity change, negative = inhibition; active means falling FRET ratio curve, often poorly fitted, with flat reads before Ran was added; inconclusive means other falling curves, or compound fluorescence or quenching; inactive means flat or rising ratio curve;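 also: potency is read from the fitted curve at half-maximal effect; % of control where 0% means no effect; nearly all actives have a fitted effect of over 45% in size; -100% = wells without RanGTP and RCC1; the record marks most hits as doubtful in a second field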
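Rango FRET biosensor (snurportin-1 IBB flanked by N-terminal EYFP and C-terminal CFP10) at 0.1 uM, with 0.25 uM importin beta in PBS, 1mM DTT, 0.02% Tween-20, 0.1% BSA. 0.6 uM Ran, 2mM GTP and 0.2 uM RCC1 were then added for 45 min at room temperature. Inhibition read as loss of FRET rise.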
miR-21 FLuc: qHTS Assay for Modulators of miRNAs and/orActivators of miR-21; HeLa miR-21 FLuc reporter, luciferase, 48 h; Potency, µM (highest dose often 38.3 µM), for the others: at the top dose reporter change, positive = more light; 340,000 tested, under 10 active; active = well fitted rising curve with a large enough effect; inconclusive = small, poorly fitted or top-dose-only effect; inactive = no such curve, though single readings can be large or run the other way;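 also: % of control where 0% means no effect; miR-21 action dims this reporter so a rising signal means less miR-21 action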
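HeLa cells endogenously expressing miR-21, stably carrying CMV-driven firefly luciferase with a downstream miR-21 binding site, 2000 cells/well. Titrations up to approximately 40 uM, 48 hours; luciferase luminescence read.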
Rango complex inh: qHTS Assay for Inhibitors of Rango (Ran-regulated importin-beta cargo) - Importin beta complex formation | Potency, µM (highest dose often 92.2 µM), for the others: at the highest dose inhibition of complex formation | AID 540263, 2011 | hit rate 0.031% among 340,000 | Importin subunit beta-1 (Homo sapiens), Q14974 | Rango CFP/YFP FRET sensor + importin beta, 45 min; active = rising FRET ratio curve, often small or poorly fitted; inconclusive = mostly compound fluorescence or quenching in the first reads; inactive = flat curves in all reads;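 also: potency is read from the fitted curve at half-maximal effect; 0% = DMSO wells and 100% = buffer wells lacking importin beta; nearly all actives have a fitted effect of over 15% in size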
Target sequence (Q14974 whole entry, looked up): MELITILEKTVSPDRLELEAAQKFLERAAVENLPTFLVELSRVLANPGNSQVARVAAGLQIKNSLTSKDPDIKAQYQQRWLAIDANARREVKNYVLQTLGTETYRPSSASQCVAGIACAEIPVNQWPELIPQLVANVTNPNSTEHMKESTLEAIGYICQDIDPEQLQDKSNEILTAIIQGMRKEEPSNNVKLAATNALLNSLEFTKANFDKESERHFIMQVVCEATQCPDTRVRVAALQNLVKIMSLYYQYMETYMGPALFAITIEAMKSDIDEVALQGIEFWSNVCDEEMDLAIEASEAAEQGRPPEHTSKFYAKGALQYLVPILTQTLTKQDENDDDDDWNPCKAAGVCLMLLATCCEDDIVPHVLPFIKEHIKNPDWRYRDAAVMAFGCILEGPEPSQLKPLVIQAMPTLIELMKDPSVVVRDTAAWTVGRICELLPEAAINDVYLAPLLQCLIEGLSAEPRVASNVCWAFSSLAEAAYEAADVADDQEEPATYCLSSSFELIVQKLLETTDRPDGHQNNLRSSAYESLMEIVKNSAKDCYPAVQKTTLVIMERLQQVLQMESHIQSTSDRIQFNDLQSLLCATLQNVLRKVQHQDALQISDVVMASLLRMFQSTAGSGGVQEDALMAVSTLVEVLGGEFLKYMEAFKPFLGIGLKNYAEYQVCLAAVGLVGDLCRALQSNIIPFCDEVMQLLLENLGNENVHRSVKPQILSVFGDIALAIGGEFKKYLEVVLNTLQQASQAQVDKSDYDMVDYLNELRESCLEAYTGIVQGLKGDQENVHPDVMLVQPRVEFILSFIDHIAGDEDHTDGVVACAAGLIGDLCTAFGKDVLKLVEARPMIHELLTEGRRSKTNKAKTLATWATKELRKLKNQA
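FRET biosensor (snurportin 1 IBB flanked by EYFP and cerulean), 50 nM, with compound 5 min, then 0.125 microM importin beta in PBS, 1 mM DTT, 0.02% Tween-20, 0.1% BSA. CFP/YFP ratio read after 45 min at room temperature; pre-read flags interference.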
The depositor's hits bear a star; ? = inconclusive; / = no result given. An excerpt; rates above refer to the full screens.

SMILES | GLA inh pH 4.5 | Rango release inh | miR-21 FLuc | Rango complex inh
CCN(CC)C(=O)CP(=O)(c1ccccc1)c1ccccc1 | 1 | 6% | -4% | -1.7%
CC(Cc1ccccc1)NC(=O)c1cc([N+](=O)[O-])ccc1Cl (stereo not drawn) | 3 | -7% | -2% | 5.4%
Cn1c(C(C#N)C(=O)c2ccco2)nc2ccccc21 (stereo not drawn) | -4 | 11% | -43% | -3.0%
FC(F)(F)c1cc(-c2ccco2)nc(NCc2cccnc2)n1 | 11 | -10% | 19% | -0.4%
O=C(NCc1cccc(F)c1)c1noc2c1CCCC2 | 2 | -1% | 0% | 0.5%
COc1ccc(S(N)(=O)=O)cc1-c1nnc2c3ccccc3c(C)nn12 | / | 4% | -4% | 4.4%
CC(=O)N1CCN(C(=O)Cn2c(=O)oc3ccccc32)CC1 | -4 | 3% | -4% | -0.5%
CC(=O)Nc1ccc(S(=O)(=O)N2CCC(C(=O)O)(c3ccccc3)CC2)cc1 | / | -14% | -4% | 4.8%
CC(CCc1ccccc1)NC(=O)CSc1ccccn1 (stereo not drawn) | 4 | -21% | -8% | -0.1%
O=C(NCc1ccccc1C(F)(F)F)C1CCC(=O)N(C2CCCCCC2)C1 (stereo not drawn) | / | 0% | -1% | -2.2%
CN(C(=O)c1cc2sccc2n1C)C1CCCCC1 | -8 | 3% | -46% | 5.4%
O=C(NCCc1ccccc1)C1CCCN1C(=O)Nc1ccccc1 (stereo not drawn) | / | 2% | -3% | -0.2%
O=[N+]([O-])c1cc([N+](=O)[O-])c(Oc2cc(Cl)ccc2Cl)cc1NC1CCCCCCC1 | / | -11% | 0% | ?
Cc1cc(O)ccc1Nc1nc(-c2sc(N)nc2C)cs1 | 6 | -1% | -1% | -3.9%
CCOC(=O)C1=CN(Cc2ccco2)S(=O)(=O)N(CC)C1c1ccc(F)c(Cl)c1 (stereo not drawn) | / | 2% | / | 1.4%
COc1ccccc1NNC(=O)c1cc(C(C)(C)C)nn1Cc1ccccc1 | -10 | 6% | -27% | -2.8%
COc1cc(NC(=O)COC(=O)c2ccc3ccccc3n2)cc(OC)c1 | / | 15% | / | -0.4%
O=C(CCc1nnc(CCC2CCCCC2)o1)NCc1ccon1 | 4 | 19% | -2% | -2.1%
CCN(CC)CCCn1c2c(c(SCC(=O)N3CCCc4ccccc43)nc1=O)CCC2 | / | 9% | / | -3.1%
COC(=O)c1c(NC(=O)CN2CCCc3ccccc32)sc(C)c1C | -1 | -2% | -10% | 1.9%
CC1CCN(S(=O)(=O)c2cc([N+](=O)[O-])ccc2Cl)CC1 | 2 | 17% | 7% | -3.6%
COc1cc(NC(=O)C(=O)N2CCN(C)CC2)c(OC)cc1Cl | -24 | -1% | -1% | 3.6%
O=C(Cn1cnc(S(=O)(=O)N2CCOCC2)c1)Nc1ccc(OC(F)(F)F)cc1 | / | 32% | 0% | 3.0%
COc1ccccc1CNC(=O)C(=O)NCC1OCCN1C(=O)c1ccc(Cl)cc1 (stereo not drawn) | 1 | 21% | -2% | 0.8%
c1ccc(CNc2nc(NCc3ccco3)nc(N3CCOCC3)n2)cc1 | 4 | 0% | -4% | 3.8%
CC(Oc1ccc(Br)cc1)C(=O)Nc1nc(-c2ccccn2)cs1 (stereo not drawn) | / | -14% | 19% | -1.2%
COC(=O)c1cc(CNC(=O)c2ccccc2Cl)ccc1OC | 4 | 2% | -4% | ?
Cn1c(=O)c2c(nc(SCC(=O)c3ccccc3F)n2C)n(C)c1=O | 10 | / | 1% | /
Cc1ccn2c(-c3n[nH]c(=S)n3C)c(C)nc2c1 | -5 | 4% | -1% | -2.9%
CCc1c(O)cc(=O)n(-c2ccccc2)c1-c1ccccc1 | -3 | 0% | -9% | -1.0%
Cc1nn(-c2ccccc2)c2sc(C(=O)n3cccn3)cc12 | 0 | -1% | -4% | 0.4%
COc1ccc(-c2nnc(SCC(=O)N3CCOCC3)o2)cc1 | 3 | 22% | -41% | 1.2%
COc1ccc(-c2c(-c3ccsc3)oc3ccc(N4CCOCC4)cc23)cc1 | / | -27% | / | -2.1%
Cc1nnc(SCC(=O)Nc2nc3ccccc3s2)n(N)c1=O | 3 | 4% | -15% | 2.0%
c1ccc(-c2ccnc3nc(-n4cccc4)nn23)cc1 | 2 | -11% | -11% | 0.2%
CN(CC(=O)O)S(=O)(=O)c1cc(Cl)ccc1Cl | 1 | -4% | -9% | ?
COc1ccc(NC(=O)C2CCN(Cc3cnn(-c4ccccc4)c3-n3cccc3)CC2)cc1OC | -2 | -11% | 20% | -0.7%
CCSCCOC(=O)C1=C(C)NC(=O)NC1c1ccccc1 (stereo not drawn) | 1 | -15% | -4% | -0.8%
O=C(NC(=S)Nc1cccc2ncccc12)c1ccco1 | 3 | 1% | -2% | -0.6%
COc1ccccc1C(=O)NC(CCSC)C(=O)N1CCN(C(C)=O)CC1 (stereo not drawn) | / | 16% | / | 3.5%
O=C1CCC(C(=O)Nc2ccc(Cl)cc2)N1 (stereo not drawn) | / | -7% | 4% | 0.2%
CC(=O)Nc1nnc(SCC(=O)NC2CC2)s1 | / | -3% | 7% | -2.0%
O=C(/C=C/c1ccccc1)CC(=O)c1ccccc1 | / | 2% | / | -1.2%
Cc1ccccc1-c1nc2c3ccccc3nc(=S)n2[nH]1 | / | -6% | -2% | -2.1%
Cc1nn(-c2ccccc2)nc1CNS(C)(=O)=O | -2 | 2% | 1% | 1.3%
CCOCCN1CCN(C2c3ccccc3CSc3ccccc32)CC1 (stereo not drawn) | / | 1% | / | 1.5%
CCN(CC(=O)Nc1ccccc1C(F)(F)F)C(=O)CSCc1c(C)noc1C | / | -8% | / | 4.5%
C[C@H](CO)N1C[C@H](C)[C@@H](CN(C)Cc2ccc(Cl)c(Cl)c2)Oc2c(NC(=O)C3CCOCC3)cccc2C1=O | / | 6% | / | -2.5%
CC(C)CC(O)(c1ccccc1)C(CN1CCOCC1)c1ccccc1 (stereo not drawn) | / | -5% | 6% | -1.6%
O=C(Cn1nc(-c2ccccc2)nc1-c1ccccc1)OC1CCCCC1 | -9 | -6% | 13% | 3.7%
Cc1ccc(S(=O)(=O)N2CCN(C(=O)n3ccnc3)CC2)cc1 | / | -11% | / | 4.4%
COc1ccc(C2=NOC(Cn3nc(-c4ccccc4)cc3C(=O)NCc3cccc(Br)c3)C2)cc1 (stereo not drawn) | / | ? | / | -0.1%
CCNC(=S)NCc1ccc(OC)c(OC)c1 | 10 | 1% | -2% | -0.1%
CC(C)CN(C(=O)CN1C(=O)NC(c2ccccc2)(c2ccccc2)C1=O)C1CCS(=O)(=O)C1 (stereo not drawn) | / | 17% | / | -2.6%
COCCn1c(N)c(C(=O)c2cccc(S(=O)(=O)N3CCCCCC3)c2)c(=O)[nH]c1=O | / | 0% | / | 0.4%
CC1Sc2ccc(S(=O)(=O)CCC(=O)N3CCCC3)cc2NC1=O (stereo not drawn) | / | 7% | -1% | -2.8%
CCC1(c2ccccc2)NC(=O)N(CC(=O)NNC(=O)c2ccc(F)cc2)C1=O (stereo not drawn) | / | -19% | / | -3.2%
Cc1ccc(C(NC(=O)Nc2ccccn2)C(Cl)(Cl)Cl)cc1F (stereo not drawn) | / | 1% | 1% | -1.9%
Cc1csc(NC(=O)c2ccc(C)c([N+](=O)[O-])c2)n1 | -3 | 1% | 20% | 2.8%
COc1ccc2c(=O)c(C(=O)O)c(-c3ccc4c(c3)OCO4)n(C)c2c1 | -1 | -15% | -11% | 0.5%
(further entries)
SMILES | GLA inh pH 4.5 | Rango release inh | miR-21 FLuc | Rango complex inh
O=c1c2cc(F)ccc2sn1-c1ccc(F)cc1 | / | 0% | / | 0.0%
Cc1ccccc1C(=O)NC(CC(C)C)C(=O)Nc1ccc(S(N)(=O)=O)cc1 (stereo not drawn) | 4 | -12% | -3% | 0.5%
c1ccc2[nH]c(N3CCOCC3)nc2c1 | -4 | 4% | -7% | 0.0%
Cc1nc2ccccc2c(=O)n1-c1ccc(F)c(NS(=O)(=O)c2ccccc2F)c1 | / | 19% | / | -0.8%
O=C(CN1C(=O)COc2ccccc21)N(CCCN1CCOCC1)CC1CC=CCC1 (stereo not drawn) | -6 | 5% | -1% | 0.3%
COc1ccc(/C=C/CN2CCC(Oc3ccc(C(=O)N4CCCCC4)cc3)CC2)cc1 | / | 4% | 4% | 1.3%
O=C(Cc1ccc(NC(=O)C2CCN(C(=O)C3CCCC3)CC2)cc1)Nc1cccc(C(=O)N2CCCCC2)c1 | / | 7% | / | -4.0%
COc1cc(NC(=O)COC(=O)/C=C/c2c(C)nn(C3CCS(=O)(=O)C3)c2Cl)cc(OC)c1OC (stereo not drawn) | 3 | -4% | 1% | -0.4%
COc1ccc(C)cc1S(=O)(=O)N1CCC(C(=O)N2CCN(C)CC2)CC1 | -4 | -3% | 2% | -0.8%
O=C(CSc1nn(-c2ccc(F)cc2)c(=S)s1)NC(=O)NCc1ccco1 | -2 | -3% | -5% | 1.8%
COC(=O)c1ccc(OC)c(-c2c(OC)cc(OC)cc2OC)c1 | -15 | -21% | -5% | -1.9%
Clc1ccc(SCCCCN2CCOCC2)cc1 | 2 | -1% | -10% | 0.7%
COc1cccc(NC(=O)COC(=O)Cc2ccccc2[N+](=O)[O-])c1 | -3 | 14% | -3% | 0.1%
Cc1ccc(S(=O)(=O)NCCC(=O)NC2CCCCC2)cc1 | / | 0% | / | -0.5%
Cc1cc(C(=O)CSc2nnc(C3COc4ccccc4O3)n2C)c(C)n1-c1ccc(F)cc1 (stereo not drawn) | -21 | -1% | 1% | -0.6%

Structural class: the compounds so far containing a furan ring, fused or not
SMILES | GLA inh pH 4.5 | Rango release inh | miR-21 FLuc | Rango complex inh
Cn1c(C(C#N)C(=O)c2ccco2)nc2ccccc21 (stereo not drawn) | -4 | 11% | -43% | -3.0%
FC(F)(F)c1cc(-c2ccco2)nc(NCc2cccnc2)n1 | 11 | -10% | 19% | -0.4%
CCOC(=O)C1=CN(Cc2ccco2)S(=O)(=O)N(CC)C1c1ccc(F)c(Cl)c1 (stereo not drawn) | / | 2% | / | 1.4%
c1ccc(CNc2nc(NCc3ccco3)nc(N3CCOCC3)n2)cc1 | 4 | 0% | -4% | 3.8%
COc1ccc(-c2c(-c3ccsc3)oc3ccc(N4CCOCC4)cc23)cc1 | / | -27% | / | -2.1%
O=C(NC(=S)Nc1cccc2ncccc12)c1ccco1 | 3 | 1% | -2% | -0.6%
O=C(CSc1nn(-c2ccc(F)cc2)c(=S)s1)NC(=O)NCc1ccco1 | -2 | -3% | -5% | 1.8%

(cont.)
SMILES | GLA inh pH 4.5 | Rango release inh | miR-21 FLuc | Rango complex inh
CC(CC(=O)Nc1ccc(C(N)=O)cc1)c1ccccc1 (stereo not drawn) | 2 | 4% | -7% | 1.4%
COC(=O)c1ccc2c(=O)n(CC3CCCO3)c(SCC(=O)Nc3ccccc3OC)nc2c1 (stereo not drawn) | 7 | 2% | -9% | -0.2%
CS(=O)(=O)N(CCc1ccccc1)CC(=O)Nc1ccc(OCc2ccccc2)cc1 | -25 | 3% | 17% | -0.7%
Nc1ccc2nc3n(c(=O)c2c1)CCC3 | 9 | -6% | -7% | -1.3%
C#CCOCCOCCOCCNc1nc(N2CCOCC2)nc(N2CCN(C(=O)[C@H](Cc3ccc(O)cc3)n3cc([C@@H](N)CC(C)C)nn3)CC2)n1 | -1 | 3% | -4% | 0.3%
CCOc1ccc(CNC(=O)C2Cc3cc(S(=O)(=O)N4CCCCC4)ccc3N2C(C)=O)cc1 (stereo not drawn) | / | -8% | -4% | -2.4%
COc1ccc(C2(C)NC(=O)N(CC(=O)NC3(C#N)CCCCC3)C2=O)cc1 (stereo not drawn) | / | 0% | -5% | -2.6%
C#CCNc1nc(C(C)C)nc2c1nnn2Cc1ccccc1F | -3 | -3% | -9% | -3.2%
